B2AR ag – activates human beta-2 adrenergic receptor causing internalization; 340,000 compounds, 0.43% hits; response, % (test concentration not listed); P07550; Am2.2-beta2AR cells, FAP receptor internalization, flow cytometry; reference of the scale not given here;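 active = response above a set limit, near 3 SD of response in nonfluorescent compounds, cut at about 42% in these data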;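 also: stock transfer was 100 nL into about 11 µL; a reference agonist was the positive control; negative values mostly stem from fluorescent compounds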
Beta cell apopt – blocks beta cell apoptosis; INS-1E cytokine-induced death, ATP luminescence, 48 h; percent of positive-control rescue, neutral wells zero; protection from apoptosis, % (test concentration not listed); 300,000 compounds, 0.8% hits; AID 435005;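 active = all replicates at 75% or more, or half of them and the mean; inconclusive = half reach 75% but not the mean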;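 also: 0% = cytokine-treated negative control wells and 100% = positive control rescue; higher means more ATP so stronger rescue from cytokine killing; wells of about 40 µL received 100 nL stock; the first replicate is given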
Bfl-1 A1 inh – inhibitors of the anti-apoptotic protein A1, read as caspase activation; caspase activation, % (no concentration beside the values); AID 2462; MEF A1-2A-BIM cells, Caspase-Glo 3/7 luminescence, 3 h; percent of clofoctol response, vehicle zero; 330,000 compounds, 0.066% hits;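 active = over half of replicate activation scores above 10%, or exactly half above 10 with the replicate mean above 10; inconclusive = replicate mean below 10 yet half the replicates above 10; inactive = over half of replicates below 10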;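 also: wells of about 30 µL received 50 nL stock; many hits fall short of the cut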
Calb FLC – affects C. albicans growth with fluconazole; C. albicans CaCi-2 (fluconazole-resistant clinical isolate) + fluconazole, Alamar Blue growth, 48 h; growth inhibition, % (no concentration beside the values); 300,000 compounds, 0.57% hits; AID 1979;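 active = most replicates above 75%; inconclusive = exactly half above 75%; inactive = most below 75%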;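 also: all wells also contain fluconazole at 8 µg/ml as a sub-toxic cotreatment; 0% = median of DMSO wells and 100% = median of geldanamycin control wells; wells of about 8 µL received 7.5 nL stock; the first replicate is given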
LANA-H2B inh – blocks KSHV LANA binding to histone H2A/H2B | 320,000 compounds, 0.6% hits | cell-free LANA-H2A/H2B peptide, fluorescence polarization | Q9QR71 | inhibition, % (test concentration not listed); in the data active = inhibition mostly above about 10%, no sharp cut-off; inactive = mostly below about 6.7%;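 also: stock transfer was 7.5 nL into about 10 µL; 0% = median of vehicle wells and 100% = median of positive control wells; one replicate is shown; the record names a cut of 25% in any replicate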
Target sequence (Q9QR71 whole entry, looked up): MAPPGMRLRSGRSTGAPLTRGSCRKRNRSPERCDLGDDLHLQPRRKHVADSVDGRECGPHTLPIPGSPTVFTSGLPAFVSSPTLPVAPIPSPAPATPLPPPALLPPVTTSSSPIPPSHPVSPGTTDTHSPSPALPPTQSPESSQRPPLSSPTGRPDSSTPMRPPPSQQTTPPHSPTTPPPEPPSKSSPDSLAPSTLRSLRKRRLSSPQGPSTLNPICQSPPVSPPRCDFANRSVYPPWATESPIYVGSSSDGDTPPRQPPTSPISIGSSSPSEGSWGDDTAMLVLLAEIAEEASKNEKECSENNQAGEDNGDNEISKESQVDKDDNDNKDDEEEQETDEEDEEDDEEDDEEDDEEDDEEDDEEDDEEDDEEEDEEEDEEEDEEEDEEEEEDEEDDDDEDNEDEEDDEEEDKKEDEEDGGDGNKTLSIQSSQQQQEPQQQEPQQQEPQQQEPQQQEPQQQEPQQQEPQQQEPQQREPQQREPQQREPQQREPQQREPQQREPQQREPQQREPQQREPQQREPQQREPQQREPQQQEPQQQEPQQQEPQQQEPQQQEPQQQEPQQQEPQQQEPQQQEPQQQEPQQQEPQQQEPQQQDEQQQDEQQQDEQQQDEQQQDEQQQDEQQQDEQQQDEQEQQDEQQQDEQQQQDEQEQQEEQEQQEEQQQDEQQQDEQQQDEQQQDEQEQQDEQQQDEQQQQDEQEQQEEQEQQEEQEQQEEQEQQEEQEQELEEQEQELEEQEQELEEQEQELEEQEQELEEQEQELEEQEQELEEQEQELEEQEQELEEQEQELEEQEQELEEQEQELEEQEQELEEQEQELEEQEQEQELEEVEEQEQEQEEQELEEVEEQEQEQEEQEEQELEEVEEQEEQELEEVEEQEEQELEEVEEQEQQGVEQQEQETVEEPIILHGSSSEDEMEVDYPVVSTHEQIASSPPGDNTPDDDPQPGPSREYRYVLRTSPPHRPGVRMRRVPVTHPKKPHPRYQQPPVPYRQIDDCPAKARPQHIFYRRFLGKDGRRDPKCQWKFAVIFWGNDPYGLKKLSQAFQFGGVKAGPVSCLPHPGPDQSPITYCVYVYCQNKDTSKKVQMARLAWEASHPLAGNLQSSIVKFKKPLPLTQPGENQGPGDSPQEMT
UCH37 DUB inh – inhibitors of human deubiquitinating enzyme UCH37; Q9Y5K5; purified proteasome/UCH37, Ub-AMC cleavage fluorescence; inhibition, % (test concentration not listed); 330,000 compounds, 0.33% hits;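 active = mean of two replicates above 20%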;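 also: 0% = compound-free wells with enzyme and 100% = wells lacking proteasome; stock transfer was 100 nL into about 20 µL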
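Material: human UCH37 enzyme supplied as purified proteasome complex / Amount: 0.15 nM proteasome as dispensed / Buffer or medium: pH 7.4 Tris-HCl (50 mM) with ovalbumin, ATP-MgCl2, DTT / Times: preincubation 30 min, reaction 25 min, room temperature / Technique: AMC fluorescence from Ub-AMC cleavage, excitation 355 nm, emission 460 nm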
RanGTP-Impb inh – disruptors of Ran-importin-beta complex formation – biochemical, FRET, CFP-Ran, YFP-importin-beta, homogeneous, primary screen | cell-free CFP-Ran/YFP-importin-beta FRET ratio | inhibition, % (concentration not given with the values) | 300,000 compounds, 1.1% hits;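 active = most replicates above 15%; inconclusive = exactly half above 15%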;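 also: 0% = DMSO wells and 100% = Ran loaded with GDP instead of GTP; wells of about 40 µL received 100 nL stock; the first replicate is given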
T cruzi inh – blocks replication of Trypanosoma cruzi; inhibition, % (test concentration not listed); T. cruzi beta-gal in NIH3T3, luminescence, 90 h; 300,000 compounds, 1.4% hits;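 active = mean inhibition across valid replicates above about 55%, limit read from the data; inconclusive = mean below that limit but half or more replicates reach it; inactive = mean below it, under half of replicates reach it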;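 also: signal also drops with host cell toxicity which is not excluded here; 0% = plate median of DMSO wells and 100% = zero luminescence signal; higher percent means less beta-gal luminescence so fewer parasites; stock transfer was 50 nL into about 50 µL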
The depositor's hits bear a star; ? = inconclusive; . = not tested or not shown.

SMILES	B2AR ag	Beta cell apopt	Bfl-1 A1 inh	Calb FLC	LANA-H2B inh	UCH37 DUB inh	RanGTP-Impb inh	T cruzi inh
COc1cc(-c2nnc(SCc3ccccc3Cl)o2)cc(OC)c1OC	-3.2	3.3	-0.1	1.4	-0.8	-2.4	0.1	28.7
Cc1cc(NC(NC(=O)c2ccco2)(C(F)(F)F)C(F)(F)F)no1	12.5	1.3	1.2	-11.8	3.5	1.2	6.0	-11.9
Cc1nc(C)n(CC(O)COc2ccc3c(c2)CCC3)n1 (stereo unspecified)	-15.9	-9.1	-0.2	-1.3	-4.4	8.6	?	4.4
CCOc1ccc(-c2nc(CSCC(=O)NC3CC3)c(C)o2)cc1	-9.5	-2.6	-0.6	9.0	4.7	1.6	-0.8	16.0
C#CCNC(=O)C1=C[C@@H](c2csc3ccccc23)[C@H](CCCO)[C@@H](OCC)O1	-3.2	-8.8	0.6	-2.6	-3.0	0.5	3.4	-15.3
Cc1ccc(NC(=O)C2CCCN2C(=O)NC2CCCCC2)cc1 (stereo unspecified)	-3.2	-1.0	1.1	-42.2	7.2	0.2	-3.1	-6.9
Cc1cc(/C=C2/C(=N)N3C(c4ccccc4)=CSC3=NC2=O)c(C)n1-c1ccccc1	-9.0	-1.9	?	5.0	0.0	-19.7	-1.4	15.2
COc1cc(OC)c2ccc(=O)oc2c1C(CC(=O)N1CCCC(C)C1)c1ccc2c(c1)OCO2 (stereo unspecified)	22.8	-13.0	0.2	33.5	2.2	-5.8	-2.3	5.0
CCC(=O)N(c1nnc(SCC(=O)NN2C(=O)NC3(CCC(C)CC3)C2=O)s1)C1CC1 (stereo unspecified)	0.7	1.1	-1.3	.	-3.2	4.2	.	.
C[C@H](CO)N1C[C@H](C)[C@@H](CN(C)S(=O)(=O)c2ccc(F)cc2)Oc2ccc(NC(=O)Nc3ccc(C(F)(F)F)cc3)cc2C1=O	7.1	-0.9	1.1	.	-2.4	.	.	.
O=[N+]([O-])c1cccc(S(=O)(=O)N2CCCC2)c1	16.6	-4.7	-0.6	29.4	-4.1	8.1	-2.6	-15.4
Cc1c(NC2=C(Cl)C(=O)N(c3ccccc3Cl)C2=O)c(=O)n(-c2ccccc2)n1C	6.0	-1.3	0.7	-7.9	2.0	8.3	-4.0	-12.1
COc1ccc(NC(=O)C(=O)NCCC2CCCCN2S(=O)(=O)c2ccccc2)cc1 (stereo unspecified)	-15.2	.	-0.6	-13.7	3.0	1.0	-3.6	8.1
O=C(N/N=C\c1ccc(-c2ccc(Cl)c(Cl)c2)o1)C(=O)N1CCCC1	9.6	-3.3	0.9	-6.2	13.3	.	2.9	-1.4
CCCSc1ncnc2sc(C)c(C)c12	-6.5	-7.3	-0.2	4.3	-1.7	1.6	4.3	-4.0
CCOC(=O)Cc1csc(NC(=O)Cc2cccs2)n1	4.5	-9.3	0.1	-9.1	0.4	1.6	2.1	-7.6
Cc1noc(NS(=O)(=O)c2ccc(N/C=C\C(=O)c3ccc4c(c3)OCO4)cc2)c1C	6.8	-0.9	-0.6	-0.4	1.7	10.3	1.1	0.3
Cc1ccc(S(=O)(=O)NCC(=O)NC2CCCC2)cc1	9.0	.	.	-5.5	.	4.0	3.4	-6.1
CCN(CC)S(=O)(=O)c1cccc(C(=O)OCC(=O)Nc2ccc3c(c2)c2ccccc2n3CC)c1	3.1	3.7	0.2	-4.5	0.9	-1.9	-2.3	-18.5
CCCC(=O)Nc1cc(-c2nnc(OC)c3ccccc23)ccc1N1CCOCC1	-14.3	2.8	0.5	4.5	-2.2	2.5	2.5	16.1
CCOc1ccc(-c2noc(CCC(N)=O)n2)cc1OCC	-2.2	0.8	0.0	-16.4	0.5	0.3	0.3	1.7
CC(OC(=O)CC1CC2CCC1C2)C(=O)Nc1ccc(C(N)=O)cc1 (stereo unspecified)	0.8	0.8	-0.3	.	-0.6	2.3	.	.
NS(=O)(=O)c1ccc(CCNC(=O)COC(=O)/C=C/c2ccccc2Cl)cc1	8.4	-3.4	0.5	4.5	-4.7	3.5	0.2	-9.3
CC(NC(=O)c1cccnc1Sc1ccccc1)c1ccc(S(N)(=O)=O)cc1 (stereo unspecified)	4.8	-6.9	0.1	-0.7	-0.2	-0.7	-1.5	-10.9
Cc1ccc(CN2CCNC(=O)C2CC(=O)N(Cc2c(C)nn(C)c2C)C2CC2)o1 (stereo unspecified)	0.9	-1.9	0.6	-4.2	-2.6	-3.1	0.6	-16.1

2 compounds from above with just Bfl-1 A1 inh:
SMILES,Bfl-1 A1 inh
Cc1cc(/C=C2/C(=N)N3C(c4ccccc4)=CSC3=NC2=O)c(C)n1-c1ccccc1,?
COc1cc(OC)c2ccc(=O)oc2c1C(CC(=O)N1CCCC(C)C1)c1ccc2c(c1)OCO2 (stereo unspecified),0.2

An excerpt of these results, as labelled records.
> C#CCNC(=O)C1=C[C@@H](c2csc3ccccc23)[C@H](CCCO)[C@@H](OCC)O1
  B2AR ag: -3.2
  Beta cell apopt: -8.8
  Bfl-1 A1 inh: 0.6
  Calb FLC: -2.6
  LANA-H2B inh: -3.0
  UCH37 DUB inh: 0.5
  RanGTP-Impb inh: 3.4
  T cruzi inh: -15.3

> Cc1ccc(NC(=O)C2CCCN2C(=O)NC2CCCCC2)cc1 (stereo unspecified)
  B2AR ag: -3.2
  Beta cell apopt: -1.0
  Bfl-1 A1 inh: 1.1
  Calb FLC: -42.2
  LANA-H2B inh: 7.2
  UCH37 DUB inh: 0.2
  RanGTP-Impb inh: -3.1
  T cruzi inh: -6.9

> Cc1cc(/C=C2/C(=N)N3C(c4ccccc4)=CSC3=NC2=O)c(C)n1-c1ccccc1
  B2AR ag: -9.0
  Beta cell apopt: -1.9
  Bfl-1 A1 inh: ?
  Calb FLC: 5.0
  LANA-H2B inh: 0.0
  UCH37 DUB inh: -19.7
  RanGTP-Impb inh: -1.4
  T cruzi inh: 15.2

> COc1cc(OC)c2ccc(=O)oc2c1C(CC(=O)N1CCCC(C)C1)c1ccc2c(c1)OCO2 (stereo unspecified)
  B2AR ag: 22.8
  Beta cell apopt: -13.0
  Bfl-1 A1 inh: 0.2
  Calb FLC: 33.5
  LANA-H2B inh: 2.2
  UCH37 DUB inh: -5.8
  RanGTP-Impb inh: -2.3
  T cruzi inh: 5.0

New compounds follow.
SMILES	B2AR ag	Beta cell apopt	Bfl-1 A1 inh	Calb FLC	LANA-H2B inh	UCH37 DUB inh	RanGTP-Impb inh	T cruzi inh
CCC1(C)Cc2[nH]c(=O)c(C#N)cc2CO1 (stereo unspecified)	0.5	-5.3	0.0	-3.8	-0.2	-308.2	0.3	-14.7
COC(=O)c1cccc(S(=O)(=O)N2CCC(NC(=O)Nc3cccc(F)c3)CC2)c1	11.8	-4.4	-0.5	5.0	-2.5	1.3	3.2	1.9
COC(=O)C1=C(C)N(CC2CC2)C(=NCc2cccc(Cl)c2)N[C@H]1c1ccccc1	13.4	.	-0.1	27.1	-5.8	1.3	-2.4	24.9
CCCC1(c2ccccc2)NC(=O)N(CC(=O)Nc2ccc3c(c2)OCCO3)C1=O (stereo unspecified)	-5.5	-3.6	-0.1	.	-0.6	-1.2	.	.
Cc1ccc(NC(=O)Nc2ncnc3nc[nH]c23)cc1	-12.7	-9.2	-3.8	-3.4	-3.9	4.1	1.0	3.8
Cc1onc(-c2ccccc2Cl)c1NC(=O)NCc1cccs1	4.9	-6.8	0.8	-5.2	-5.7	3.9	-3.0	6.8
CC1CCCC(C)N1CCCNC(=O)c1csc2c1CCCCC2 (stereo unspecified)	-3.5	-2.3	-0.3	-0.5	12.5	1.9	5.4	9.4
CC1(C)COC(c2cccc(C3=NC(C)(C)CO3)n2)=N1	5.5	2.1	1.0	1.3	-1.3	4.1	5.7	-11.8
COc1ccccc1C(=O)NC(=O)COC(=O)c1ccc(NC(=O)CC#N)cc1	2.6	-4.9	0.6	-1.1	0.4	-2.0	6.5	6.3
O=C(Nc1ccc(S(=O)(=O)N2CCCCCC2)cc1)c1ccco1	-11.7	.	-2.3	-35.2	-0.4	-0.4	-2.1	3.8
O=C(NC1CCCc2ccccc21)C1CCN(c2c3c(nc4ncnn24)CCC3)CC1 (stereo unspecified)	0.1	3.6	-0.3	11.8	0.8	3.8	-1.9	5.7
COc1cc(OC)c(C2CC(=O)N3CN(C)CSC3=C2C#N)cc1OC (stereo unspecified)	-58.0	-2.2	0.0	-4.5	-0.1	7.8	5.2	-3.8
Cc1cc(-c2nc(-c3ccncc3)no2)ccc1[N+](=O)[O-]	-3.7	4.1	-9.6	34.1	-4.9	1.0	-3.6	-12.3
CNC(=S)Nc1ccc(N2CCCC2)c(S(=O)(=O)Nc2ccc(OC)cc2)c1	1.0	-7.1	0.8	.	1.7	-1.2	.	.
O=C1CCCN1CCCNS(=O)(=O)c1cccs1	-8.1	-3.6	0.8	.	-5.9	0.9	.	.
CCCc1cc(=O)[nH]c(SCCCCN2C(=O)c3ccccc3C2=O)n1	6.3	2.0	0.2	15.3	-0.1	3.2	0.2	6.2
CCCOc1nc2c(c(=O)n(C)c(=O)n2C)n1Cc1cccc2ccccc12	6.9	103.0*	1.0	25.3	1.6	5.7	-3.1	18.9
CCOC(=O)CN(C)Cc1c[nH]c2ccccc12	.	0.1	-0.5	-9.9	-3.5	.	4.9	16.8
C=CCN(c1ccccc1)S(=O)(=O)c1cccc(C(=O)OCC(=O)NC2CC2)c1	2.0	.	-0.2	-4.4	-7.0	1.1	0.1	-11.0
Cc1cc(C)c(C)c(S(=O)(=O)NC(C(=O)NCCc2ccco2)C(C)C)c1C (stereo unspecified)	-0.7	-2.2	0.9	.	-4.3	-1.0	.	.
N#C/C(=C\c1ccc(OCC(N)=O)cc1)c1ccccc1	-5.5	1.1	0.5	-17.4	-3.5	2.2	0.6	-2.0
Cc1ccc(NC(=O)CN2C(=O)NC(Cc3c[nH]c4ccccc34)C2=O)cc1 (stereo unspecified)	11.6	-2.4	0.0	.	0.3	5.3	.	.
Nc1nnn(CC(=O)N/N=C/c2ccc(Cl)cc2Cl)n1	-13.5	-5.7	0.8	-6.7	-3.3	.	3.0	-16.2
Cc1cc(C)cc(OCC(=O)OCC(=O)Nc2c(C)n(C)n(-c3ccccc3)c2=O)c1	-0.2	1.9	0.5	-5.0	-7.9	5.7	2.5	6.6
S=c1[nH]nc(-c2ccccn2)n1/N=C/c1c(Cl)cccc1Cl	2.7	4.6	-0.4	-2.7	-2.6	.	0.0	-15.4
O=C(N/N=C/c1ccc(-c2ccc([N+](=O)[O-])cc2)o1)C(O)c1ccccc1 (stereo unspecified)	9.3	7.3	-0.7	-7.6	6.0	.	-26.2	3.4
Cc1ccc2c(COC(=O)CNS(=O)(=O)c3ccccc3)cc(=O)oc2c1	3.3	3.9	1.1	.	3.5	1.5	.	.
COc1cccc(C(=O)N2CCN(Cc3cccc(F)c3)CC2)c1	-1.6	2.2	1.1	5.9	3.2	6.2	3.7	-13.1
Cc1ccc(N2C(=O)C(NC(=O)c3c(F)cccc3F)(C(F)(F)F)C3=C2CC(C)(C)CC3=O)cc1 (stereo unspecified)	12.6	-8.8	-0.3	-3.9	-0.8	1.8	-1.8	11.4

Screens from PubChem BioAssay.
